Bioassay records (PubChem BioAssay)
rRNA inh HTS: selective bacterial rRNA inhibition in E. coli; E. coli WT GFP vs humanized-ribosome RFP mutants, fluorescence, 24 h; hits give low values; DMSO median 0, no signal -100; GFP signal change (wild-type ribosome), % (concentration not given with the values); 350,000 compounds, 1.6% hits; AID 720706;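 active = significant combined selectivity score with lowered wild-type GFP, culture density cut under 30%, mutant RFP and density less affected; inactive = any of these conditions unmet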; note: one replicate is shown; some compounds called inactive have numbers as strong as hits
rRNA inh HTS OD600: further read-out of rRNA inh HTS, marked with its call; OD600 change, %; measured here: OD600 growth;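 optical density of the mix in the first replicate; 0 = DMSO median and -100 = no signal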
rRNA inh HTS RFP: second read-out of rRNA inh HTS, no call of its own (marks repeat the call); RFP signal change, %; measured here: RFP humanized mutant strains;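 first replicate; 0 = DMSO median and -100 = no signal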
* hit, by the source's call; & = joins results of further samples. Some of the compounds tested; count on the stated rates, not on these rows.

item	canonical_smiles	rRNA inh HTS	rRNA inh HTS OD600	rRNA inh HTS RFP
1	CC(=O)N1[C@H](C(=O)N(C)C)[C@@H](CO)[C@@H]2Cn3c(ccc(-c4ccc(F)cc4)c3=O)[C@@H]21	3.6	9.6	-1.0
2	C[C@H]1CN([C@@H](C)CO)C(=O)c2cc(NS(=O)(=O)c3ccccc3)ccc2O[C@H]1CN(C)S(=O)(=O)c1cn(C)cn1	3.0	3.7	0.0
3	O=C(NCCN1CCCCC1)[C@@H]1[C@@H](CO)[C@@H]2Cn3c(cccc3=O)[C@H]1N2C(=O)C1CCCCC1	2.5	8.6	-3.2
4	C/C=C/c1ccc([C@@H]2[C@H](CO)N(C(=O)CN(C)C)C23CN(C(=O)C2CCC2)C3)cc1	1.9	2.8	0.5
5	COc1cccc(-c2ccc3c(c2)[C@H]2[C@H](CCN2C(=O)c2ccccn2)[C@@H](CO)N3)c1	-5.2	2.0	-0.1
6	C[C@@H]1CCCCO[C@@H](CN(C)C(=O)Nc2ccc(C(F)(F)F)cc2)[C@H](C)CN([C@H](C)CO)C(=O)c2cc(N(C)C)ccc2O1	-1.0	2.4	1.9
7	C[C@H](CO)N1C[C@H](C)[C@@H](CN(C)Cc2ccc(Cl)c(Cl)c2)Oc2ccc(NC(=O)CCCN(C)C)cc2C1=O	-1.4	-1.4	1.4
8	Cc1ccc(S(=O)(=O)N(C)C[C@@H]2Oc3cc(Br)ccc3S(=O)(=O)N([C@H](C)CO)C[C@H]2C)cc1	-23.9	-59.7	13.6
9	COCC(=O)NC[C@@H]1[C@H](c2ccccc2)[C@H](CO)N1C(C)=O	3.7	10.7	-0.9
10	CN(C)C(=O)c1ccc(-c2ccc3c(c2)[C@@H]2[C@@H](CCN2C(=O)C2CC2)[C@H](CO)N3C)cc1	-2.7	-0.7	-4.2
11	COc1ccccc1C(=O)N1C[C@H]2[C@@H](c3ccccc31)[C@@H](CO)N2C(=O)Cc1cccnc1	3.5	9.7	-3.2
12	CC=Cc1ccc2n(c1=O)C[C@H]1[C@H](CO)[C@@H](C(=O)NCC3CC3)[C@@H]2N1C(=O)Nc1cc(F)ccc1F (mixture of isomers)	0.3	6.4	1.0
13	C/C=C/c1ccc([C@H]2[C@@H](CO)N[C@@H]2CN(CC(C)C)C(=O)c2ccccn2)cc1	1.0	-0.8	-0.2
14	C[C@H](CO)N1C[C@H](C)[C@@H](CN(C)C(=O)Nc2ccccc2)Oc2c(NC(=O)Nc3cccc4ccccc34)cccc2C1=O	0.8	-0.5	1.0
15	COc1cccc(-c2ccc3n(c2=O)C[C@H]2[C@H](CO)[C@@H](C(=O)NC4CCCC4)[C@@H]3N2C)c1	-0.3	2.8	1.6
16	C[C@H]1CN([C@@H](C)CO)C(=O)CCCn2cc(nn2)CO[C@@H]1CN(C)C(=O)c1ccc2ccn(C)c2c1	2.0&16.1	1.7&11.9	-1.0&2.6
17	Cc1noc(C)c1NC(=O)N(C)C[C@@H]1Oc2ccc(NC(=O)Nc3ccc4c(c3)OCO4)cc2CC(=O)N([C@@H](C)CO)C[C@H]1C	4.5	4.2	-2.8
18	Cc1ccccc1-c1cnc2c(c1)C(=O)N([C@@H](C)CO)C[C@@H](C)[C@@H](CN(C)Cc1ccncc1)O2	-2.2	7.2	-2.9
19	C[C@@H]1CN([C@H](C)CO)C(=O)Cc2cc(NS(=O)(=O)c3cccs3)ccc2O[C@@H]1CN(C)Cc1ccncc1	-3.0	7.3	3.7
20	O=C(Nc1ccccc1)N[C@@H]1CC[C@H](CCNS(=O)(=O)c2ccccc2F)O[C@@H]1CO	3.8	11.2	0.8
21	CCc1nc2ccc(C(=O)NCCCN(C)C)cn2c1N(C)Cc1ccc(OC)cc1	-2.2	-3.5	-0.1
22	COC(=O)[C@@]12C[C@@H](CC(=O)N3CCC(c4ccccc4)CC3)C(=O)N(CCc3ccc(OC)c(OC)c3)C1=CCC(C)(C)C2	8.7	12.1	1.7
23	COc1cccc(C(C)(O)c2nc(-c3ccc4c(c3)OCO4)cs2)c1 (stereo unspecified)	-53.3	-78.9	-18.2
24	CC(=O)c1ccc(N2CCN(S(=O)(=O)c3ccc4c(c3)C(Cl)(Cl)C(=O)N4)CC2)cc1	-54.9	-82.6	-21.5
25	CCCCc1c(-c2ccccc2OC)ncn1C(C)c1ccccc1 (stereo unspecified)	-57.9	-78.2	-16.6

item	canonical_smiles	rRNA inh HTS	rRNA inh HTS OD600	rRNA inh HTS RFP
26	CC(C)CC#Cc1ccc2c(c1)O[C@H](CN(C)C(=O)C1CCOCC1)[C@H](C)CN([C@H](C)CO)S2(=O)=O	0.5	12.4	0.8
27	O=C(O)C[C@@H]1C=C[C@H](NC(=O)c2ccccc2F)[C@H](CO)O1	0.2	3.6	0.0
28	CCCc1cn(CC[C@H]2CC[C@H](NC(=O)Nc3ccccc3F)[C@@H](CO)O2)nn1	-1.5	-2.8	-0.2
29	CCS(=O)(=O)Nc1ccc2c(c1)C(=O)N(C)[C@H]1CC[C@H](CC(=O)N3CCOCC3)O[C@H]1CO2	1.0	0.4	1.2
30	C[C@@H]1CN([C@@H](C)CO)C(=O)CCCn2nncc2CO[C@@H]1CN(C)C(=O)CCC(F)(F)F	-0.1&2.0	3.3&2.2	1.4&1.4
31	Cc1ccccc1-c1ccc2c(c1)O[C@H](CN(C)CC1CC1)[C@H](C)CN([C@@H](C)CO)S2(=O)=O	-0.4	-3.2	1.3
32	CNC[C@@H]1OCCCC[C@@H](C)Oc2ccc(NC(=O)NC3CCCCC3)cc2C(=O)N([C@@H](C)CO)C[C@H]1C	3.7	5.7	-1.2
33	C[C@@H]1CN([C@H](C)CO)C(=O)Cc2cc(NC(=O)Cn3cnnn3)ccc2O[C@H]1CN(C)Cc1ccccc1	0.5	8.5	-2.5
34	CCNC(=O)C[C@@H]1CC[C@H]2[C@@H](COC[C@@H](O)CN2C(=O)c2cccnc2)O1	2.1	-1.6	-0.3
35	C[C@H](CO)N1C[C@H](C)[C@@H](CN(C)S(=O)(=O)c2cn(C)cn2)Oc2c(NC(=O)CCC(F)(F)F)cccc2C1=O	0.0	2.3	-2.9
36	C[C@H]1CN([C@@H](C)CO)C(=O)CCCn2cc(nn2)CO[C@@H]1CN(C)S(=O)(=O)c1ccccc1C#N	-2.1	1.1	-0.3
37	Cc1noc(C)c1NC(=O)N(C)C[C@@H]1Oc2c(NC(=O)NC3CCCCC3)cccc2C(=O)N([C@H](C)CO)C[C@@H]1C	-0.8	1.1	-2.5
38	CN(C)C(=O)c1ccc(-c2ccc([C@H]3[C@@H](C#N)N(C(=O)C4CCC4)[C@H]3CO)cc2)cc1	1.5	-0.4	-2.0
39	O=C(C[C@@H]1C[C@H]2c3cc(NC(=O)C4CCOCC4)ccc3O[C@H]2[C@@H](CO)O1)NC1CCCCC1	0.9	-1.4	0.1
40	CSc1nc(S(=O)(=O)c2ccc(C)cc2)c(N2CCOCC2)s1	2.7	-4.5	3.7
41	CN1c2ccc(-c3ccccc3F)cc2[C@@H]2[C@@H](CCN2C(=O)c2cccc(F)c2)[C@@H]1CO	-14.1	-46.9	34.5
42	C[C@H]1CN([C@@H](C)CO)C(=O)CCCn2nncc2CO[C@H]1CN(C)Cc1ccc(C(=O)O)cc1	0.8	5.0	0.4
43	Cc1ccc(-c2ccc3c(c2)O[C@H](CN(C)Cc2cccc(C(=O)O)c2)[C@@H](C)CN([C@@H](C)CO)S3(=O)=O)cc1	-11.5	-1.0	6.0
44	CO[C@H]1CN(C)C(=O)c2cc(NC(C)=O)ccc2OC[C@@H](C)N(C(=O)CC2CC2)C[C@H]1C	-0.6	-0.2	2.5
45	C[C@@H]1CCCCO[C@@H](CN(C)S(=O)(=O)c2ccc(Cl)cc2)[C@H](C)CN([C@H](C)CO)C(=O)c2cc(NC(=O)c3ccccc3)ccc2O1	2.6	-3.3	7.1
46	COc1ccc(S(=O)(=O)N2CC3(CN(Cc4ccncc4)[C@@H](CO)c4[nH]c5cc(OC)ccc5c43)C2)cc1	-2.9	-16.4	-3.7
47	C[C@H]1CN([C@@H](C)CO)C(=O)CCCn2cc(nn2)CO[C@@H]1CN(C)S(=O)(=O)c1ccc(F)cc1	-1.2&13.6	1.4&1.5	-0.2&-0.1
48	Cn1cnc(S(=O)(=O)N[C@H]2C=C[C@H](CC(=O)Nc3ccccc3)O[C@@H]2CO)c1	3.3	4.2	0.2
49	C[C@H]1CN([C@@H](C)CO)C(=O)Cc2cc(NC(=O)Cc3cn(C)c4ccccc34)ccc2O[C@@H]1CN(C)C(=O)Nc1ccccc1	-0.7	1.0	-4.0
50	C[C@H]1CN([C@@H](C)CO)C(=O)c2cc(NS(C)(=O)=O)ccc2O[C@@H]1CN(C)S(=O)(=O)c1cn(C)cn1	1.2	5.6	-1.4

Quoted at random: two records from the list.
item	canonical_smiles	rRNA inh HTS	rRNA inh HTS OD600	rRNA inh HTS RFP
45	C[C@@H]1CCCCO[C@@H](CN(C)S(=O)(=O)c2ccc(Cl)cc2)[C@H](C)CN([C@H](C)CO)C(=O)c2cc(NC(=O)c3ccccc3)ccc2O1	2.6	-3.3	7.1
28	CCCc1cn(CC[C@H]2CC[C@H](NC(=O)Nc3ccccc3F)[C@@H](CO)O2)nn1	-1.5	-2.8	-0.2

Filtered by structure: the compounds so far with a cyano group
item	canonical_smiles	rRNA inh HTS	rRNA inh HTS OD600	rRNA inh HTS RFP
36	C[C@H]1CN([C@@H](C)CO)C(=O)CCCn2cc(nn2)CO[C@@H]1CN(C)S(=O)(=O)c1ccccc1C#N	-2.1	1.1	-0.3
38	CN(C)C(=O)c1ccc(-c2ccc([C@H]3[C@@H](C#N)N(C(=O)C4CCC4)[C@H]3CO)cc2)cc1	1.5	-0.4	-2.0

Carrying on.
item	canonical_smiles	rRNA inh HTS	rRNA inh HTS OD600	rRNA inh HTS RFP
51	CC(=O)c1ccc(S(=O)(=O)N2CCN(c3ccnc4cc(Cl)ccc34)CC2)cc1	-5.3	-5.5	3.1
52	Cc1ccc(-c2ccc([C@H]3[C@@H](CO)N4CCCCN(C(=O)Nc5cccc(F)c5)C[C@H]34)cc2)cc1	-59.0	-78.2	-15.4
53	Cc1ccccc1-c1ccc([C@H]2[C@@H](CO)N3CCCCN(C(=O)Nc4ccc(F)cc4)C[C@@H]23)cc1	-18.6	-48.7	9.3
54	CC(Nc1nc(-c2cccnc2)nc2ccccc12)c1ccccc1 (stereo unspecified)	-44.8	-76.0	-17.2
55	CCCCCCn1cc(CN2CC(N3CCCCC3)CS2(=O)=O)nn1 (stereo unspecified)	2.8	13.7	0.2
56	C[C@H](CO)N1C[C@H](C)[C@@H](CN(C)Cc2ccc(Cl)c(Cl)c2)Oc2ccc(NC(=O)Nc3ccc(F)cc3)cc2CC1=O	1.0	2.2	3.6
57	Cn1c(=O)[nH]c(=O)c2c1nc(Br)n2Cc1ccc(Cl)cc1	2.5	2.9	0.2
58	CC(C)NC(=O)N(C)C[C@H]1OCCCC[C@@H](C)Oc2ccc(NS(=O)(=O)c3cn(C)cn3)cc2C(=O)N([C@@H](C)CO)C[C@H]1C	-3.5	7.0	-3.2
59	COc1ccccc1CNC(=O)C[C@@H]1C[C@H]2c3cc(NC(=O)Nc4ccc(C(F)(F)F)cc4)ccc3O[C@H]2[C@H](CO)O1	-0.7	-3.5	-0.9
60	COc1ccccc1S(=O)(=O)N1CC[C@@H]2[C@H]1c1cc(-c3ccccc3)ccc1N(C)[C@H]2CO	3.1	7.4	-2.2
61	COCC#Cc1ccc([C@H]2[C@@H](CO)N3C(=O)CN(C(=O)C4CCOCC4)C[C@H]23)cc1	7.2	3.1	-4.8
62	O=C(NCc1ccc(Cl)cc1)N1CCN(C(=O)c2ccccc2)CC1	10.2	-0.2	4.7
63	C[C@H](CO)N1C[C@H](C)[C@@H](CN(C)Cc2ccccc2)Oc2cc(C3=CCCCC3)ccc2S1(=O)=O	-1.6	3.2	-1.1
64	CC(C)(C)NC(=O)CN(C(=O)CCC(=O)Nc1nccs1)c1ccccc1F	9.5	13.0	-1.3
65	CNC[C@@H]1Oc2c(NC(=O)c3cnccn3)cccc2C(=O)N([C@H](C)CO)C[C@H]1C	3.8	3.2	-0.2
66	C[C@H]1CN([C@@H](C)CO)C(=O)c2cccc(NC(=O)Nc3cccc4ccccc34)c2O[C@H]1CN(C)Cc1ccc(C(=O)O)cc1	3.2	8.2	2.2
67	CN1C(=O)c2cc(NC(=O)Nc3ccc(Cl)cc3)ccc2OC[C@H]2O[C@@H](CC(=O)NCCN3CCCCC3)CC[C@H]21	-1.2	-6.7	0.0
68	COCC(=O)N(C)C[C@@H]1Oc2cc(C3=CCCC3)ccc2S(=O)(=O)N([C@@H](C)CO)C[C@@H]1C	-3.3	-8.4	-3.6
69	COc1ccc(C(O)c2nc(-c3cccc(O)c3)cs2)cc1 (stereo unspecified)	6.8	-18.2	1.0
70	C[C@@H]1CN([C@H](C)CO)C(=O)c2ccccc2-c2ccccc2CO[C@@H]1CN(C)C(=O)Cc1ccccc1	2.2	0.8	-2.4
71	O=C(C[C@H]1CC[C@@H]2[C@H](COC[C@@H](O)CN2Cc2ccc3c(c2)OCO3)O1)Nc1ccc(-c2ccccc2)cc1	4.0	-21.0	17.3
72	COc1ccc(S(=O)(=O)N(C)C[C@@H]2OCCCC[C@@H](C)Oc3ccc(NS(=O)(=O)c4cn(C)cn4)cc3C(=O)N([C@@H](C)CO)C[C@@H]2C)cc1	-0.5	-8.6	0.5
73	Cc1cc(N2CCN(C(C(=O)NC3CCCC3)C(C)(C)C)CC2)c2ccccc2n1 (stereo unspecified)	-29.1	-25.9	6.4
74	CCCC#Cc1ccc2c(c1)O[C@@H](CN(C)C(=O)c1ccncc1)[C@@H](C)CN([C@H](C)CO)S2(=O)=O	-1.1	-10.4	-2.4
75	CN(C)C(=O)c1cccc(-c2ccc(C3[C@H]4CNC[C@@H]3N4Cc3cccnc3)cc2)c1 (stereo partly specified)	4.3	-4.4	-2.5
76	CO[C@H]1CN(C)C(=O)c2cc(NC(=O)Nc3ccccc3F)ccc2OC[C@@H](C)N(C)C[C@@H]1C	0.0	-7.7	-0.2
77	Cc1ccc(CN2CC(N3CCCC3)CS2(=O)=O)cc1 (stereo unspecified)	3.9	3.6	3.2
